# Rango dissoc inh: prevents RanGTP from dissociating the Rango-importin beta complex. Biochemical FRET Rango-importin beta, RanGTP-induced dissociation. AID 540253. hit rate 0.071% among 340,000. Potency, µM (doses to about 46.1 µM), inactives show top-dose activity change, negative = inhibition; active means falling FRET ratio curve, often poorly fitted, with flat reads before Ran was added; inconclusive means other falling curves, or compound fluorescence or quenching; inactive means flat or rising ratio curve;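 note: potency is the fitted concentration of half-maximal effect; % of control where 0% means no effect; nearly all actives have a fitted effect of over 45% in size; -100% = wells without RanGTP and RCC1; the record marks most hits as doubtful in a second field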
#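 Rango (0.1 uM)–importin beta (0.25 uM) complex; RanGTP-RCC1 trigger; 45 min RT; CFP/YFP FRET read.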
# GLA inh pH 4.5: blocks human alpha-galactosidase A at pH 4.5 | 230,000 tested, under 10 active | activity change, negative = inhibition, % at 105 µM | purified enzyme, 4-MU-alpha-Gal fluorescence, pH 4.5; inconclusive = small, poorly fitted or top-dose-only inhibition, or a rising curve; inactive = flat fitted curve, though single readings scatter; no compound was filed as active;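 note: 0% = full activity with enzyme and -100% = basal without enzyme; dose as in the result columns while the protocol names 77 µM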
# miR-21 FLuc: raises the signal of a miR-21 reporter | Potency, µM (top dose mostly 38.3 µM), for inactives: top-dose reporter change, positive = more light | HeLa miR-21 FLuc reporter, luciferase, 48 h | AID 2288 | 340,000 tested, under 10 active; active = well fitted rising curve with a large enough effect; inconclusive = small, poorly fitted or top-dose-only effect; inactive = no such curve, though single readings can be large or run the other way;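 note: % of control where 0% means no effect; miR-21 action dims this reporter so a rising signal means less miR-21 action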
#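 Using DMEM plus 10% FBS, HeLa miR-21-FLuc cells are incubated with test compounds (final up to about 40uM) for 48 hours; firefly luciferase signal is then imaged following reagent-mediated lysis.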
# Rango complex inh: prevents formation of the Rango-importin beta complex | hit rate 0.031% among 340,000 | Potency, µM (top dose mostly 92.2 µM), for inactives: at the highest dose inhibition of complex formation | Rango CFP/YFP FRET sensor + importin beta, 45 min; active = rising FRET ratio curve, often small or poorly fitted; inconclusive = mostly compound fluorescence or quenching in the first reads; inactive = flat curves in all reads;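 note: potency is the fitted concentration of half-maximal effect; 0% = DMSO wells and 100% = buffer wells lacking importin beta; nearly all actives have a fitted effect of over 15% in size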
# Target sequence (Q14974 whole entry, looked up): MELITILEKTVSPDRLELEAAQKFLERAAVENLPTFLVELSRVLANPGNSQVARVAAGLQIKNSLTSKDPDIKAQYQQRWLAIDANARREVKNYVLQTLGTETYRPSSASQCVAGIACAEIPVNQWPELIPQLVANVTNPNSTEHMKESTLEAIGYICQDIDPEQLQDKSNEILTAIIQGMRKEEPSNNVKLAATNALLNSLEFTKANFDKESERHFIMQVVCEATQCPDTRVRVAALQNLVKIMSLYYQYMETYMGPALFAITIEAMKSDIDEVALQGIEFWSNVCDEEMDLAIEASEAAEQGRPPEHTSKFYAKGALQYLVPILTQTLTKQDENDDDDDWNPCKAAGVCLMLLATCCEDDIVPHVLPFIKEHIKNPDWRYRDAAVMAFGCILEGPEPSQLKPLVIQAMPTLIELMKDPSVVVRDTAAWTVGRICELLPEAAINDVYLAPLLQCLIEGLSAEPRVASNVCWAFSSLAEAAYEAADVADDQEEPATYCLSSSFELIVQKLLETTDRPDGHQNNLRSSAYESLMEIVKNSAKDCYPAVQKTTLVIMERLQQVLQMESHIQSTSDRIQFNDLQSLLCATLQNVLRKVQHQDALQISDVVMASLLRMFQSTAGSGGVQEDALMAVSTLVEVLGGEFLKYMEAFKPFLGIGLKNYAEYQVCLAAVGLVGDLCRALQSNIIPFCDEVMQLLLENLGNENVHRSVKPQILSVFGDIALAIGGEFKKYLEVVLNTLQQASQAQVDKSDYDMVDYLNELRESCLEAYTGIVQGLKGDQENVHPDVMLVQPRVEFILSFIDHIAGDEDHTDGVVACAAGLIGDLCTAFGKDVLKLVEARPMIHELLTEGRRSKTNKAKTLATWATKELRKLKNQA
#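 FRET biosensor Rango (snurportin 1 IBB between N-terminal EYFP and C-terminal Cerulean), 50 nM in PBS/1 mM DTT/0.02% Tween-20/0.1% BSA, preincubated 5 min RT with compound; 0.125 microM importin beta added, 45 min RT, CFP/YFP FRET ratio read.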
# * marks the source's active call; other numbers are inactive results; ? = inconclusive; / = not tested or not shown; & = joins results of further samples; [ ] = remark or other dose. These rows are one share of the data, so the mix of outcomes need not match the whole.
no.	SMILES	Rango complex inh	miR-21 FLuc	Rango dissoc inh	GLA inh pH 4.5
1	O=C(COc1ccccc1)NS(=O)(=O)c1ccc(Cl)cc1	1.1%	-6%	9%	/
2	Cc1ccccc1C(=O)N1CCC(C(=O)Nc2sccc2C(N)=O)CC1	-0.9%	/	-2%	/
3	COc1cc(OC)c(C(=O)NCC(c2cccs2)N(C)C)cc1OC (stereo not given)	/	-2%	/	-3
4	COC(=O)c1c(NC(=O)c2ccccc2F)sc2c1C(C(=O)OC)CC2 (stereo not given)	-0.8%	-10%	10%	/
5	Cc1ccc(C(=O)N/N=C\c2ccc(-c3ccc([N+](=O)[O-])cc3)o2)cn1	?	-3%	?	-10
6	Cc1c(Cl)cccc1NC(=S)NCc1ccc2c(c1)OCO2	?	-8%	-9%	-26
7	CCOC(=O)c1c(NC(NC(C)=O)C(Cl)(Cl)Cl)sc2c1CCCC2 (stereo not given)	-4.4%	11%	0%	8
8	CCc1ccc2[nH]c(=O)c(CN(Cc3ccc(F)cc3)C(c3nnnn3CCN3CCOCC3)C(C)C)cc2c1 (stereo not given)	-0.5%	-37%	-12%	-24
9	CC(C)CNC(=O)CSc1n[nH]c(=O)n1CCc1ccccc1	1.3%	2%	1%	/
10	CCOC(=O)c1csc(NC(=O)CSc2nnnn2-c2cccc(OC)c2)n1	?	1%	0%	-12
11	CCOC(=O)N1CCN(c2ccc(C(C)=O)cc2F)CC1	5.0%	-2%[7.66 µM]	1%	1
12	CCc1ccc(C(=O)Nc2nnn(CC)n2)cc1	0.4%	12%	-16%	-23
13	CCCCCOP(=O)(c1ccccc1)c1ccccc1	1.8%	-16%	-10%	3
14	Cc1onc(-c2ccccc2)c1C(=O)N/N=C/c1c[nH]c2ccccc12	5.1%	2%	16%	-10
15	COCCN(C(=O)CSc1nnc(Nc2ccccc2F)s1)c1c(N)n(Cc2ccccc2)c(=O)[nH]c1=O	1.8%	-11%	-5%	7
16	CC(C)NC(NC(=O)/C=C/c1ccccc1)C(Cl)(Cl)Cl (stereo not given)	0.5%	-3%	-6%	3
17	CCOc1ccc(-c2nc3n(c(=O)c2C#N)CCCS3)cc1	?	-4%	-10%	1
18	COCc1nn2c(N)c(-c3ccccc3)cnc2c1-c1ccccc1	3.5%	-57%	0%	/
19	CCOC(=O)N1CCC(NC(=O)C(C)n2c3ccccc3c3cnn(C)c(=O)c32)CC1 (stereo not given)	-0.7%	-6%	1%	-6
20	Cc1ccc(CNC(=O)c2cc(-c3ccccc3)n(Cc3cc(C)no3)n2)cc1	0.0%	/	13%	/
21	COC(=O)C(CO)Nc1ncnc2onc(-c3ccc(F)cc3)c12 (stereo not given)	-2.2%	1%	-2%	/
22	CCOC(=O)C1CCN(CCC(=O)Nc2cc(C)ccc2C)CC1	-2.3%	-2%	-6%	/
23	CCNC(=O)NC(=O)C(C)OC(=O)c1oc2ccc(OCC)cc2c1C (stereo not given)	-2.5%	-6%	-9%	7
24	COCCN(CCOC)c1nc(-c2ccc(Cl)cc2)nc2ccccc12	4.6%	9%	-16%	/
25	CC(c1ccco1)N(C(=O)c1ccc(F)cc1)c1ccccn1 (stereo not given)	-2.8%	-4%	1%	8
26	COc1ccccc1/C(C)=N/NC(=S)NCc1ccccc1	1.6%	-11%	19%	10
27	COc1ccc(/C=N/NC2=NCCCCC2)c(OC)c1	1.4%	-10%	30%	1
28	O=C(O)/C=C/C(=O)NNc1ncnc2ccccc12	-0.4%	-31%	-13%	-6
29	CC(=O)Nc1cccc(NC(=O)c2cc(-c3cccnc3)nc3ccc(Br)cc23)c1	-3.1%	15%	8%	7
30	CN1CCN(C(=O)c2ccc(F)c(F)c2)CC1	2.5%	2%	-1%	/
31	CCCN(CC(=O)Nc1ccccc1C)C(=O)C1CC(=O)N(c2ccc(C)cc2)C1 (stereo not given)	-1.3%	/	0%	/
32	Cc1cc(C(F)(F)F)c(C#N)c(Sc2ccccc2)n1	-0.7%	-8%	0%	4
33	CCCCN(C)C(=O)c1nc2ccccn2c1CN(C)Cc1csc(C)n1	-3.4%	-3%	16%	1
34	CCCCNC(=O)c1cn(C)c2ccc(S(=O)(=O)N3CCCC3)cc2c1=O	0.3%	-1%&4%	11%	/
35	CN(Cc1ccccc1)C(=O)C1CCN(S(=O)(=O)c2ccc(-n3cnnn3)cc2)CC1	-2.9%	1%	14%	/
36	O=C(N/N=C\c1cn[nH]c1-c1ccccc1)c1ccc([N+](=O)[O-])cc1	5.3%	1%	18%	9
37	COc1ccc(OCCn2cnc(Cl)c2Cl)cc1	2.1%	-22%	0%	0
38	COc1cc(C(c2sc3nc(C)nn3c2O)N2CCOCC2)cc(OC)c1OC (stereo not given)	-4.1%	-2%	-4%	4
39	Cc1cc(NC(=O)CSc2nnc3ccccn23)no1	-0.1%	2%	1%	-7
40	COc1ccc(N2CCN(C(=O)c3c(Cl)cnn3C)CC2)cc1	2.8%	-8%	1%	/
41	O=C(COc1ccccc1)N1CCc2ccccc21	2.5%	-64%	1%	-7
42	O=C(CN1C(=O)c2ccccc2S1(=O)=O)c1ccc(OC(F)F)cc1	-3.2%	30%	8%	/
43	O=C(NS(=O)(=O)Oc1ccccc1F)OC[C@@H]1CCCN2CCCCC12 (stereo not given in full)	-0.9%	-1%	14%	/
44	O=C(NC1CCS(=O)(=O)C1)c1ccc(S(=O)(=O)N2CCCC2)cc1 (stereo not given)	0.6%	0%	6%	/
45	Cc1cccc(NC(=O)CSc2cccc[n+]2[O-])c1C	-1.1%	/	-6%	/
46	O=C(O)CNC(=O)C(Cc1ccccc1)NC(=O)OCc1ccccc1 (stereo not given)	2.0%	-1%	-2%	2
47	CCOC(=O)C1=C(O)CSC1=Nc1cccc(Cl)c1	1.3%	-6%	1%	-5
48	COc1cc(/C=N\NC(=O)CNC(=O)C2COc3ccccc3O2)ccc1O (stereo not given)	-0.2%	-4%	-2%	-5
49	C/C(=N\Nc1ccc(F)cc1F)c1cccs1	/	-21%	/	3
50	CCCCNC(=S)N=Nc1c(O)[nH]c2ccccc12	4.6%	5%	-8%	-6
51	CCOc1ccc(N(CC(=O)Nc2ccccc2OCC)S(=O)(=O)c2c(C)noc2C)cc1	5.2%	23%	-7%	/
52	CC(=O)c1ccc(NC(=S)NC(=O)CC(C)C)cc1	-2.9%	-26%	14%	-4
53	COc1ccccc1N1CCN(/N=C/C(Cl)=C/c2ccccc2)CC1	2.3%	-48%	?	-6
54	Cc1c(C(=O)N2CCOCC2)[nH]c2c1C(=O)CC(c1ccccc1Cl)C2 (stereo not given)	2.4%	?	-19%	-1
55	COC(=O)c1[nH]c2ccc(C)cc2c1NC(=O)CN1CCc2cc(OC)c(OC)cc2C1	0.2%	19%	-3%	/
56	Fc1ccc(-c2nnc(CN3CCN(c4ncc(C(F)(F)F)cc4Cl)CC3)o2)cc1	4.1%	-3%	-8%	-12
57	CCCOC1CCCN(C(=O)c2cc(COc3ccc(-n4cncn4)cc3)on2)C1 (stereo not given)	-0.2%	1%	-4%	/
58	COc1cccc(OCc2cc(C(=O)N3CCNC(=O)C3Cc3ccccc3)no2)c1 (stereo not given)	-1.5%	-32%	-5%	/
59	O=C1C=C(/C=C/c2ccccc2)C[C@@H](c2ccc(F)cc2)C1	6.1%	/	-4%	/
60	Cc1cc(C)cc(Oc2coc3cc(O)ccc3c2=O)c1	2.0%	-8%	-19%	/

# Shown with values ahead of the structure: four of the compounds above.
entry	Rango complex inh	miR-21 FLuc	Rango dissoc inh	GLA inh pH 4.5	canonical_smiles
38	-4.1%	-2%	-4%	4	COc1cc(C(c2sc3nc(C)nn3c2O)N2CCOCC2)cc(OC)c1OC (stereo not given)
39	-0.1%	2%	1%	-7	Cc1cc(NC(=O)CSc2nnc3ccccn23)no1
40	2.8%	-8%	1%	/	COc1ccc(N2CCN(C(=O)c3c(Cl)cnn3C)CC2)cc1
41	2.5%	-64%	1%	-7	O=C(COc1ccccc1)N1CCc2ccccc21

# (listing goes on)
no.	SMILES	Rango complex inh	miR-21 FLuc	Rango dissoc inh	GLA inh pH 4.5
61	C=CC(=O)Nc1cccc(Oc2cc(Cl)nc3[nH]ccc23)c1	6.2%	/	-8%	/
62	CC(=O)c1cccc(NC(=O)CC2Oc3ccc(C)cc3NC2=O)c1 (stereo not given)	-1.4%	5%	21%	-3
63	Cn1c(CNC(=O)CNS(=O)(=O)c2ccc(F)cc2F)cc(=O)n(C)c1=O	0.8%	1%	1%	/
64	CC(C)CNC(=O)COC(=O)c1cc(S(=O)(=O)N2CCCCC2)ccc1N1CCOCC1	-0.2%	-10%	1%	7
65	CC(=O)c1ccc(CCCCCCCCCC(=O)O)s1	-1.3%	-5%	-4%	-9
66	COc1ccc(C(=O)Nc2ccc(Cl)cn2)cc1Cl	3.0%	-44%	1%	0
67	O=C(Nc1c2c(nn1-c1ccccc1)CS(=O)C2)c1ccc(S(=O)(=O)N2CCOCC2)cc1 (stereo not given)	0.3%	-1%	-8%	0
68	CCNC(=O)n1cc(-n2cncn2)c(-c2ccc(Cl)cc2)n1	2.6%	0%	-21%	-15
69	COc1ccc(C)cc1NC(=O)c1cc(-c2ccccc2)nc2c1cnn2C(C)C	0.6%	/	-1%	/
70	Cc1nc2ccccc2n1CCc1nc2c3ccccc3nc(=S)n2[nH]1	-1.9%	-13%	6%	3
71	O=C(NCC1CCCO1)c1ccc(CS(=O)(=O)c2ccc(Cl)cc2)o1 (stereo not given)	7.9%	-1%	7%	9
72	CCCCCCOc1ccc(/C=c2\s/c(=C(/C#N)C(=O)NCc3ccco3)n(-c3ccccc3)c2=O)cc1	?	-7%	-16%	3
73	Fc1ccc(Cn2nnnc2C(c2cccs2)N2CCN(C3CCCCC3)CC2)cc1 (stereo not given)	-0.2%	5%	8%	-1
74	CCOc1ccccc1C1CC(=O)Nc2cc3c(cc21)OCCO3 (stereo not given)	-5.2%	23%	30%	-10
75	CCCn1c(=O)c2c(nc3n2CCCN3CCc2ccccc2)n(C)c1=O	4.9%	5%	7%	/
76	O=c1c(N2CCCCC2)coc2ccccc12	-3.5%	-35%	1%	-5
77	Cc1cc(SCC(=O)NC2CCCCC2)nc2ccccc12	?	-1%	7%	/
78	O=C(CSc1nncs1)N1CCN(C(=O)c2ccco2)CC1	0.1%	/	19%	/
79	O=C(Nc1ccc(F)cc1F)c1ccccc1NC(=O)C1CC=CCC1C(=O)O (stereo not given)	0.2%	-8%	-24%	/
80	COc1ccc(C)cc1NC(=S)N1CCN(S(C)(=O)=O)CC1	-0.9%	-6%	4%	18
81	COC(=O)c1ccc(C2C(C(=O)OC(C)C)=C(C)N=C3SCCC(=O)N32)cc1 (stereo not given)	/	0%	/	4
82	CCCOc1ccc(-c2c(C(=O)N/N=C(\C)c3cccnc3)nnn2-c2nonc2N)cc1	-3.3%	1%	-10%	/
83	COc1ccc(CN2CCN(C(=O)CN3C(=O)C4C5C=CC(C5)C4C3=O)CC2)c(OC)c1OC (stereo not given)	-1.9%	15%	-14%	7
84	COc1ccc(S(=O)(=O)N2CCC(C(=O)NCc3ccc(C)cc3)CC2)cc1	-0.7%	1%	2%	/
85	CC(NC(N)=O)C(=O)OCc1ccc(Cl)cc1Cl (stereo not given)	-3.1%	-2%	-11%	-4
86	O=C(NN=Cc1ccc2c(c1)OCO2)NN=Cc1ccc2c(c1)OCO2	10%	/	0%	/
87	O=C1CCCc2c1cnc1ncnn21	2.6%	3%	0%	8
88	COC(=O)c1cccc2c1NC(=O)C2=O	0.4%	11%	-9%	-4
89	CC(C)(O)C#Cc1ccc(C(=O)N2CCCC(CNS(=O)(=O)c3cccs3)C2)o1 (stereo not given)	-1.5%	-1%	-1%	/
90	O=C(CCC(=O)N1CCN(c2ccccc2F)CC1)N1CCN(c2ccccc2)CC1	-0.4%	13%	-3%	/
91	NC(=O)c1ccc(N2CCN(c3ccccc3F)CC2)c([N+](=O)[O-])c1	-1.8%	12%	1%	-14
92	N[C@@H](Cc1cc(I)c(Oc2ccc(O)c(I)c2)c(I)c1)C(=O)O	-2.3%&-1.4%	0%&1%	-21%&0%	7&3

# Taken from above:
# Value for no. 76 in Rango dissoc inh: 1%
# Value for no. 82 in Rango dissoc inh: -10%
# Value for no. 66 in Rango complex inh: 3.0%

# Bioassay records as filed in PubChem BioAssay.
